# Vaccinia mCherry = vaccinia inhibition (mCherry reporter) | Vaccinia virus mCherry reporter infection, fluorescence; about a quarter of the inactives have no number | Potency, µM (top dose mostly 36.5 µM), without a hit: at the highest dose activity change, negative = inhibition, most hits filed as inhibitors | actives 0.63% (n = 310,000); active = well fitted inhibition curve with a large enough effect; inconclusive = small, poorly fitted or top-dose-only effect; inactive = no such curve, though single readings can be large or run the other way; tested in A549 cells; note: nearly all actives have a fitted effect of over 35% in size; inactives centre near -10
# Vaccinia Venus = inhibitors of vaccinia virus (Venus reporter); Vaccinia virus Venus reporter expression, fluorescence; Potency, µM (doses to about 36.5 µM), for inactives: top-dose activity change, negative = inhibition, most hits filed as inhibitors; actives 0.46% (n = 330,000); active means well fitted inhibition curve with a large enough effect; inconclusive means small, poorly fitted or top-dose-only effect; inactive means no such curve, though single readings can be large or run the other way; tested in A549 cells; note: nearly all actives have a fitted effect of over 30% in size; inactives centre near -10
# Numbers without * were called inactive; i = inactive; u = inconclusive; x = not tested or not shown; [ ] = another dose, or the depositor's remark. % is set by controls: 0 for no effect and ±100 for the full control effect; potency is the fitted concentration of half-maximal effect. Hits appear at their usual frequency; 0.88% or so of the library scored in one or more.
# Values run as follows: Vaccinia mCherry | Vaccinia Venus
1) Cc1cccn2c(=O)c(C(=O)NC3CCCCC3C)c(O)nc12 (configuration not stated)
    i | -16%
2) COc1cc(C2N=C(N)Nc3nc4ccccc4n32)ccc1OCCC(C)C (configuration not stated)
    -3% | -7%
3) O=S(=O)(c1ccc(Oc2ccc(Cl)cc2)nc1)N1CCOCC1
    -16% | -3%
4) COc1ccccc1CNC(=S)Nc1cc(C)ccc1C
    u | -19%
5) CN(C1CCS(=O)(=O)C1)S(=O)C12CC3CC(CC(C3)C1)C2 (configuration not stated)
    x | -5%
6) C=CCNC(=O)c1onc(CSc2ccncc2)c1C(=O)NCC=C
    -3% | -16%
7) CCc1ccc(NC(=O)CN2CCN(C3CCCCC3)C(=O)C2=O)cc1
    -4% | -6%
8) COc1ccc(C(=O)NCC(C)NC(=O)c2ccc(OC)c(Br)c2)cc1Br (configuration not stated)
    -13% | -12%
9) O=C(NC12CC3CC(CC(C3)C1)C2)C1CC(=O)N(c2ccc(Br)cc2)C1 (configuration not stated)
    x | 0%
10) Cc1ccc(C)c(CSC2=NCCN2S(=O)(=O)c2ccccc2)c1
    -21% | -19%
11) O=C(Cc1ccc(F)cc1)NCC1CCCO1 (configuration not stated)
    i | -15%
12) CCc1nc2ccc(C(=O)NCCCn3ccnc3)cn2c1N(C)CCCc1ccccc1
    15% | -4%
13) CCN(CC)CCN(Cc1cc2cc3c(cc2[nH]c1=O)OCCO3)C(=O)NC1CCCCC1
    -16%[1.46 µM] | -29%
14) Cn1nnnc1Sc1ncnc2scc(-c3ccc(F)cc3)c12
    10µM* | u
15) Cc1ccc(NC(=O)CSc2nnc3nc(C)cc(C)n23)cc1
    -4% | -3%
16) CC(C)(O)C#Cc1ccc(C(=O)NCCc2ccc(S(N)(=O)=O)cc2)cc1
    -4% | 1%
17) C/C(=N\NC(=O)c1nnn(-c2nonc2N)c1CSc1ccc(C)cc1)c1cccnc1
    -4% | -26%
18) Cc1ccc(NC2CCCN(C(=O)c3nonc3C)C2)cc1C (configuration not stated)
    -4% | -16%
19) Cc1ccccc1NC(=O)C1CCCN(C(=O)Nc2ccc(F)cc2)C1 (configuration not stated)
    i | 4%
20) COc1ccc(/C=C/C(=O)OCC(=O)NC2CCCC(C)C2C)cc1 (configuration not stated)
    -26% | -21%
21) CCc1nnc2n1N(C(C)=O)C(c1ccc(C(C)(C)C)cc1)=C(C(C)=O)S2
    u | u
22) COc1cc2[nH]c(=S)n(CCN3CCOCC3)c(=O)c2cc1OC
    i | -10%
23) Cc1ccc(CNC(=O)CN(C)S(=O)(=O)c2cnc[nH]2)cc1
    -9% | -2%
24) O=S(=O)(Nc1ccccc1Br)c1cccs1
    -11% | 0%
25) CN1CCN(c2ccccc2NC(=O)c2c(F)cccc2F)CC1
    i | -6%
26) O=C(Nc1ccccc1C(=O)NCCN1CCOCC1)c1cccc([N+](=O)[O-])c1
    -24% | -20%
27) COc1ccc(C(C(=O)NC2CCCC2)N(Cc2cccnc2)C(=O)Cc2cccs2)cc1OC (configuration not stated)
    -4% | -14%
28) CCc1ccccc1NC(=O)CSc1nc2c(c(=O)[nH]1)CN(Cc1ccccc1OC)CC2
    -2% | 11%
29) CCCCc1nnc(NC(=O)CCS(=O)(=O)Cc2ccccc2)s1
    -22% | -5%
30) CCOC(=O)CSc1nc(C)cc(Oc2ccc(=O)n(C)n2)n1
    i | -20%
31) Nc1nc2ccccc2n1/N=C/c1ccc(-c2ccccc2)o1
    -10% | -22%
32) COc1cc2cc(CCO)oc(=O)c2cc1OC
    -12% | -9%
33) CCOC(=O)CNc1ncnc2c1nnn2C
    -14% | -3%
34) CCSC1=N/C(=C\c2ccc3c(c2)OCO3)C(=O)S1
    -9% | -3%
35) CC(=O)NCCc1cc2ccc(C)c(C)c2[nH]c1=O
    i | -10%
36) Cc1ccc(S(=O)(=O)N2CCOCC2)cc1NC(=O)CSc1nc2ccccc2c(=O)n1Cc1ccccc1
    -6% | -17%
37) COc1ccc(Cl)cc1C(=O)NNC(=O)c1[nH]c(C)c(C(C)=O)c1C
    i | -10%
38) CC(C)C[C@H]1CN(CCCC[C@H]2CNC(=O)C(=O)N2Cc2ccccc2)C(=O)C(=O)N1CCc1ccc(O)cc1
    -17% | -2%
39) Cc1oncc1-c1cn2ccccc2n1
    -1% | 4%
40) CCOC(=O)c1c(S(=O)(=O)N2CCC(C(=O)N3CCN(c4cc(C)ccc4C)CC3)CC2)c(C)n(C)c1C
    i | -17%
41) CCC(C)NC(=O)C1CCN(S(=O)(=O)c2ccc3c(c2)CCCN3C(C)=O)CC1 (configuration not stated)
    2% | 1%
42) O=C(O)C1=C[C@@H](c2csc3ccccc23)C[C@@H](OCCCCO)O1
    i | 0%
43) NC(=S)N=Nc1c(O)[nH]c2c(Br)cc(Br)cc12
    u | u
44) Cc1ccc(OCCCn2c(-c3ccc(Cl)cc3)nc3ccccc3c2=O)cc1C
    -7% | 4%
45) CCN(CC)c1ccc(/C=N/NC(=O)c2nnn(-c3nonc3N)c2C(C)C)c(O)c1
    2.5µM* | u
46) O=C(Nc1ccccc1Oc1cccnc1)C1CCCN(Cc2ccccc2O)C1 (configuration not stated)
    -8% | -15%
47) Cc1ccc(S(=O)(=O)NC(C)CCc2ccccc2)cc1 (configuration not stated)
    -2% | -22%
48) O=C(CN(C(=O)c1csnn1)c1ccc2c(c1)OCCO2)NCc1ccccc1
    -16% | -23%
49) Cc1ccc(/C=C/c2ccc3cccc(O)c3n2)s1
    u | -12%
50) CC1(c2nnc(Cc3ccccc3)o2)CC(c2ccc(C#N)cc2)=NO1 (configuration not stated)
    -9% | -19%
51) Cc1ccc(C)c(CN2CCC(CNC(=O)c3cc4ccc5cccnc5c4[nH]3)CC2)c1
    u | -19%
52) O=C(Cn1cnc(S(=O)(=O)N2CCCC2)c1)Nc1ccc(OC(F)(F)F)cc1
    -4% | -4%[7.34 µM]
53) CCCn1c(SCC(=O)Nc2ccc(C(=O)Nc3ccccc3OC)cc2)n[nH]c1=O
    -9% | -15%
54) CCOc1ccc(NC(=O)N(CCCN2CCOCC2)Cc2cccnc2)cc1
    13% | 8%
55) CCOC(=O)C1(C)CCN1C(=O)c1ccc(OC)c(F)c1 (configuration not stated)
    9% | -9%
56) CCc1cccc(C)c1NC(=S)N(CCN(C)C)C(C)c1cccnc1 (configuration not stated)
    -11% | -8%
57) COc1cccc(-c2ncc3ccccc3c2COC(=O)c2cccs2)c1
    -9% | -18%
58) Cc1ccc(S(=O)(=O)N(C)C)cc1NC(=O)C1CCC1
    i[7.34 µM] | -11%[7.34 µM]
59) COc1ccc(Oc2nccc(-c3ccccc3)c2C#N)cc1
    x | -18%
60) O=C(Nc1ccnn1C1CCN(CCCc2ccccc2)CC1)c1cccc(F)c1
    i | -12%

# Sorted by molar mass (rising): part of the list above
# Values run as follows: Vaccinia mCherry | Vaccinia Venus
39) Cc1oncc1-c1cn2ccccc2n1
    -1% | 4%
33) CCOC(=O)CNc1ncnc2c1nnn2C
    -14% | -3%
35) CC(=O)NCCc1cc2ccc(C)c(C)c2[nH]c1=O
    i | -10%
49) Cc1ccc(/C=C/c2ccc3cccc(O)c3n2)s1
    u | -12%
34) CCSC1=N/C(=C\c2ccc3c(c2)OCO3)C(=O)S1
    -9% | -3%
55) CCOC(=O)C1(C)CCN1C(=O)c1ccc(OC)c(F)c1 (configuration not stated)
    9% | -9%
58) Cc1ccc(S(=O)(=O)N(C)C)cc1NC(=O)C1CCC1
    i[7.34 µM] | -11%[7.34 µM]
59) COc1ccc(Oc2nccc(-c3ccccc3)c2C#N)cc1
    x | -18%
47) Cc1ccc(S(=O)(=O)NC(C)CCc2ccccc2)cc1 (configuration not stated)
    -2% | -22%
50) CC1(c2nnc(Cc3ccccc3)o2)CC(c2ccc(C#N)cc2)=NO1 (configuration not stated)
    -9% | -19%
42) O=C(O)C1=C[C@@H](c2csc3ccccc23)C[C@@H](OCCCCO)O1
    i | 0%
37) COc1ccc(Cl)cc1C(=O)NNC(=O)c1[nH]c(C)c(C(C)=O)c1C
    i | -10%
56) CCc1cccc(C)c1NC(=S)N(CCN(C)C)C(C)c1cccnc1 (configuration not stated)
    -11% | -8%
57) COc1cccc(-c2ncc3ccccc3c2COC(=O)c2cccs2)c1
    -9% | -18%
54) CCOc1ccc(NC(=O)N(CCCN2CCOCC2)Cc2cccnc2)cc1
    13% | 8%
46) O=C(Nc1ccccc1Oc1cccnc1)C1CCCN(Cc2ccccc2O)C1 (configuration not stated)
    -8% | -15%
60) O=C(Nc1ccnn1C1CCN(CCCc2ccccc2)CC1)c1cccc(F)c1
    i | -12%
48) O=C(CN(C(=O)c1csnn1)c1ccc2c(c1)OCCO2)NCc1ccccc1
    -16% | -23%
44) Cc1ccc(OCCCn2c(-c3ccc(Cl)cc3)nc3ccccc3c2=O)cc1C
    -7% | 4%
41) CCC(C)NC(=O)C1CCN(S(=O)(=O)c2ccc3c(c2)CCCN3C(C)=O)CC1 (configuration not stated)
    2% | 1%
51) Cc1ccc(C)c(CN2CCC(CNC(=O)c3cc4ccc5cccnc5c4[nH]3)CC2)c1
    u | -19%
53) CCCn1c(SCC(=O)Nc2ccc(C(=O)Nc3ccccc3OC)cc2)n[nH]c1=O
    -9% | -15%
40) CCOC(=O)c1c(S(=O)(=O)N2CCC(C(=O)N3CCN(c4cc(C)ccc4C)CC3)CC2)c(C)n(C)c1C
    i | -17%
38) CC(C)C[C@H]1CN(CCCC[C@H]2CNC(=O)C(=O)N2Cc2ccccc2)C(=O)C(=O)N1CCc1ccc(O)cc1
    -17% | -2%
36) Cc1ccc(S(=O)(=O)N2CCOCC2)cc1NC(=O)CSc1nc2ccccc2c(=O)n1Cc1ccccc1
    -6% | -17%

# (listing goes on)
# Values run as follows: Vaccinia mCherry | Vaccinia Venus
61) CC(=O)OCCc1[nH]c2ccccc2c1C
    i | -6%
62) c1ccc(-c2cc3c(N4CCOCC4)ncnc3s2)cc1
    -18% | -27%
63) CCCCN(C(=O)COC(=O)CSc1ccc([N+](=O)[O-])cc1)c1c(N)n(CCC)c(=O)[nH]c1=O
    -9% | 0%
64) COc1cc(C(=O)NCCCNc2nc3cc(C)c(C)cc3cc2C#N)cc(OC)c1OC
    -1% | -29%
65) CCOC(=O)c1c(C)[nH]c(C)c1S(=O)(=O)N1CCC(C(=O)NCc2cccc(C)c2)CC1
    -10% | -6%
66) CCOC(=O)c1cnc2c(C)c(-c3ccccc3)[nH]n2c1=O
    x | -11%
67) CC(C)c1ccc(CCNC(=O)c2cccc(S(=O)(=O)N3CCN(C)CC3)c2)cc1
    u | -21%
68) CC(C)NC(=S)N1CCC(Cc2ccccc2)CC1
    -2% | -19%
69) CS(=O)(=O)c1ccc2nc(NC(=O)CC3CCCC3)sc2c1
    u | u
70) COc1ccc(S(=O)(=O)NC(C(C)C)C(C)C)cc1OC
    x | -13%
71) C[N+]1(CC(=O)c2ccc(Cl)cc2)CCOCC1
    -10% | -4%
72) Cc1ccc(CCNC(=O)c2nc(CS(=O)(=O)c3ccc(Cl)cc3)no2)cc1
    -27% | -21%
73) CC1CC[C@@]2(C(=O)O)CCC3(C)C(=CCC4[C@]5(C)CC(O)C(O)[C@](C)(CO)C5C(O)C[C@@]43C)C2C1C (some centres not stated)
    i | -12%
74) CCOC(=O)C1=C(C)N=C2SCCC(=O)N2[C@@H]1c1cccs1
    -6% | -8%
75) COc1ccc(NC(=O)CN2CCC(NC(=O)c3ccco3)CC2)c([N+](=O)[O-])c1
    -9% | -7%
76) CC(C)c1nc(NCCO)c(C#N)c2c1CCCC2
    -13%[7.34 µM] | -16%[7.34 µM]
77) Cc1ccc2c(c1)S(=O)(=O)N(C)C(c1ccccc1)=C2
    i | -7%
78) Cc1ccc(OCCCCCCN2CCNCC2)cc1
    -15% | -18%
79) COc1ccc(/C=C/C(=O)ONC2=NCCCCC2)cc1OC
    2% | 0%
80) COc1cccc(Cn2cnc3c2c(=O)n(C)c(=O)n3C)c1
    -9%[7.34 µM] | -7%[7.34 µM]
81) Cc1cc(-c2csc(N)n2)c(C)n1Cc1ccccc1
    -7% | -2%
82) O=C(Nc1ccn(Cc2ccccc2F)n1)c1ccc(COc2ccccc2Cl)cc1
    u | u
83) COc1ccc(OC)c(-n2c(C)ccc2-c2ccc(S(C)(=O)=O)cc2)c1
    x | -3%
84) Cc1ccc(N/N=C(\Cc2nc3ccccc3[nH]2)c2ccccc2)cc1
    u | u
85) O=C(O)/C=C/C(=O)Nc1ccccc1C(=O)OCC(=O)c1ccc2c(c1)OCCO2
    -14% | -10%
86) Cc1ccc(CN2C(=O)C(C)Oc3ccc(C)cc32)cc1 (configuration not stated)
    -12% | -7%
87) CCCCSCc1nc2ccccn2c1Br
    i | -7%
88) Cc1nn(Cc2ccccc2)c(C)c1NC(=O)CCCn1nc(C)c([N+](=O)[O-])c1C
    17% | -6%
89) O=C(Cn1nnc(-c2ccc(Cl)cc2)n1)NCCC1=CCCCC1
    i | -13%
90) Cc1noc(C)c1COc1cccc(C(=O)Nc2ccc(Br)cc2F)c1
    u | u
91) CC(C)(C)c1ccc(/C=C/C(=O)NC2=NCCS2)cc1
    x | -29%
92) COc1ccc(NC(=O)c2nc[nH]c2C(=O)N2CCN(c3ccccc3)CC2)cc1
    i | -14%
93) O=C(c1ccc(Cl)cc1[N+](=O)[O-])N1CCN(c2ccccn2)CC1
    -20% | -5%
94) NNC(=O)c1ccc(COc2ccc3c(c2)CCC3)cc1
    -5% | -19%
95) CC(=O)[C@H]1[C@H]([C@H](O)[C@H](O)CO)O[C@](O)(C(=O)O)C[C@@H]1O
    -13% | -5%

# Screens from PubChem BioAssay.
